MT1-MMP act inh: blockers of MT1-MMP proenzyme processing, primary screen, HT1080 RFP-PRO-GFP cells, GFP/RFP fluorescence | GFP/RFP ratio fluorescence, overnight; percent of plate control window, DMSO zero | 360,000 tested, 0.061% active | GFP/RFP ratio change, % at 20 µM | AID 651647, 2012;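 active means GFP/RFP ratio change of at least 30% with cell ATP level not reduced by more than half and red fluorescence within 50% of control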; further: strong numbers were not always called active
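Assay system: HT1080 RFP-PRO-GFP cells. Benchmarks: DMSO vehicle wells and RFP-L50D-GFP reporter cell wells. Times: overnight cell settling, then overnight compound exposure, 37 °C, 5% CO2. Compound: 20 µM single dose, 1% DMSO. Read-out basis: GFP/RFP fluorescence ratio.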
eIF4H inh: human eIF4H binding inhibitors, primary screen, translation initiation inhibitor project, biochemical, uHTS, fluorescence polarization | Eukaryotic translation initiation factor 4H (Homo sapiens), Q15056 | 290,000 tested, 0.94% active | eIF4H fluorescence polarization binding assay | inhibition, % at 35 µM;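 active means 50% or more with normal probe brightness, or confirmed in later tests; about a fifth of its hits are not listed in these tables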;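 further: calls also rest on retests at 20 µM and on dose response follow-up; 0% = protein and probe with vehicle and 100% = probe without protein; strong numbers were not always called active; many hits fall short of the cut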
CSC inhib: cancer stem cell viability inhibitors, primary screen, luminescence; cancer stem cell-like cells viability; inhibition, % at 7.5 µM; 300,000 tested, 1.1% active; AID 2717, 2010;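 active means mean at 75% or more and at least half the replicates too; tested in HMLE shEcad cells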;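 further: 0% = median of negative and 100% = median of positive control wells; the first replicate is given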
Yeast UUG start: modulators of yeast start codon fidelity, primary screen, whole organism, S. cerevisiae, single point, plate reader. S. cerevisiae UUG-firefly luciferase reporter, luminescence/redox ratio. AID 602363, 2012. 350,000 tested, 0.13% active. activity score, % at 18.7 µM;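 active means replicate mean at a twofold rise or more, about +100% in these data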;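 further: firefly luciferase made from a UUG start codon reports start codon fidelity; reporter light over untreated wells divided by growth signal over untreated wells; some hits fall short of that in this replicate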
Rce1 inh: yeast Rce1p protease inhibitors, primary screen, biochemical, fluorescence, cell-free homogeneous | yeast membranes, quenched prenylated peptide cleavage fluorescence | calls only | CAAX prenyl protease 2 (Saccharomyces cerevisiae (strain ATCC 204508 / S288c)), Q03530 | 290,000 tested, 0.27% active;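 active means fall in fluorescence gain of 50% or more versus controls, with final raw signal at or below 3038400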;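 further: plate controls were neutral control wells for no effect and wells lacking membranes for full effect; tested at 10 µM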
Target sequence (Q03530 whole entry, looked up): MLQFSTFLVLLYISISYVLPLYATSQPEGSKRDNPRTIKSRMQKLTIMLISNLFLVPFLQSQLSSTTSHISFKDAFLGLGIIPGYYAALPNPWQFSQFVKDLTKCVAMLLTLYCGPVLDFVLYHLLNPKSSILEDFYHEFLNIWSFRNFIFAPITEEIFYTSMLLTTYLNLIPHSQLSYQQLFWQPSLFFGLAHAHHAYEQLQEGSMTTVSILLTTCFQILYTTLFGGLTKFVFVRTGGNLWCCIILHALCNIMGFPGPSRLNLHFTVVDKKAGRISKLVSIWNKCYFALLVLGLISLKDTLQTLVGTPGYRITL
PABP polyA inh: PABP poly(A) RNA binding inhibitors, primary screen, biochemical, fluorescence polarization, uHTS; inhibition, % at 35 µM; 290,000 tested, 1% active; Polyadenylate-binding protein 1 (Homo sapiens), P11940; AID 2014, 2009;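 active means 50% or more with normal probe brightness, or confirmed in later tests; about a fifth of its hits are not listed in these tables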;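 further: calls also rest on retests at 20 µM and on dose response follow-up; controls were probe without protein and protein plus probe with vehicle; some compounds called inactive have numbers as strong as hits; many hits fall short of the cut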
Env fusion inh: inhibitors of HIV-1 Env-driven cell-cell fusion, primary screen, HeLa-JRFL effector, CEM21 target cells, luciferase | 360,000 tested, 1.1% active | inhibition, % at 12.3 µM;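 active means mean replicate inhibition score of at least 50 and every replicate individually at or above 50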;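 further: 0% = plate neutral controls and 100% = maraviroc near 300 nM; one replicate is shown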
eIF4H inh retest: second read-out of eIF4H inh, no call of its own (marks repeat the call); inhibition, %; compound at 20 µM; confirmation average;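 mean of two retest wells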
PABP polyA inh retest: further read-out of PABP polyA inh, marked with its call; inhibition, %; compound at 20 µM; confirmation repeats;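 mean of two retest wells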
MT1-MMP act inh RFP: further read-out of MT1-MMP act inh, marked with its call; RFP signal change, %; measured here: RFP expression control read;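 0 = vehicle wells; hits needed this value within 50% of zero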
* hit, by the source's call; i = inactive; . = not tested or not shown. Only part of the results is shown. The share of hits here may be higher or lower than overall.

SMILES	MT1-MMP act inh	MT1-MMP act inh RFP	eIF4H inh	CSC inhib	Yeast UUG start	Rce1 inh	PABP polyA inh	Env fusion inh	others
CCS(=O)(=O)c1ccc2c(c1)NC(=O)C(CCCl)O2 (stereo not given)	4	2	60	-2	-18	i	0	-6	eIF4H inh retest=13;PABP polyA inh retest=48
Cc1cc(O)c(C(C)C)cc1NS(=O)(=O)c1ccccc1	-1	-5	-1	-14	26	i	6	-26
CCOc1ccccc1/C=N/Nc1ccccc1[N+](=O)[O-]	9	-4	3	-1	-4	i	-4	-32
COc1ccc(C2CC(C)=C(C#N)S(=O)(=O)C2C#N)cc1 (stereo not given)	-7	8	0	-1	-9	i	-2	5
COCCN(CCOC)Cc1cc(=O)oc2cc(OC)c(Cl)cc12	0	-1	.	.	-4	.	.	1
CC(C)CC(NC(=O)C1CCCCC1)C(=O)NC(C)c1ccccc1 (stereo not given)	-5	-4	-6	-7	0	i	-1	8
O=C(CSc1ccc(F)cc1)NNC(=O)c1ccccc1Br	1	2	-8	-5	-4	i	-5	1
CN=C1S/C(=C\c2ccc(N3CCCC3)c(F)c2)C(=O)N1C	-5	1	101	47	-8	i	-8	-26	eIF4H inh retest=-6;PABP polyA inh retest=3
Cc1ccc(COc2ccc(/C=N/NC(=O)c3ccc(CN4CCOCC4)cc3)cc2)cc1	7	-12	-14	40	.	i	5	-9
Cc1cc2nc(-c3ccc(SCc4ccc(C(=O)O)cc4)nc3)[nH]c2cc1C	-2	-2	12	-5	.	i	11	-69

Reprinted from the part before: 6 entries, followed by the next part.
SMILES	MT1-MMP act inh	MT1-MMP act inh RFP	eIF4H inh	CSC inhib	Yeast UUG start	Rce1 inh	PABP polyA inh	Env fusion inh	others
COCCN(CCOC)Cc1cc(=O)oc2cc(OC)c(Cl)cc12	0	-1	.	.	-4	.	.	1
CC(C)CC(NC(=O)C1CCCCC1)C(=O)NC(C)c1ccccc1 (stereo not given)	-5	-4	-6	-7	0	i	-1	8
O=C(CSc1ccc(F)cc1)NNC(=O)c1ccccc1Br	1	2	-8	-5	-4	i	-5	1
CN=C1S/C(=C\c2ccc(N3CCCC3)c(F)c2)C(=O)N1C	-5	1	101	47	-8	i	-8	-26	eIF4H inh retest=-6;PABP polyA inh retest=3
Cc1ccc(COc2ccc(/C=N/NC(=O)c3ccc(CN4CCOCC4)cc3)cc2)cc1	7	-12	-14	40	.	i	5	-9
Cc1cc2nc(-c3ccc(SCc4ccc(C(=O)O)cc4)nc3)[nH]c2cc1C	-2	-2	12	-5	.	i	11	-69
Cn1cnnc1SCc1nc(N)nc(Nc2ccccc2)n1	0	1	-1	-6	.	i	-9	-40
O=C(NCc1cccc(C(F)(F)F)c1)c1csc([C@@H]2C[C@H](O)[C@@H](CO)O2)n1	0	-1	.	.	-14	.	.	-7
c1ccc(C2CC(c3cccs3)n3nnnc3N2)cc1 (stereo not given)	8	8	3	-14	-31	.	1	-36
COc1ccccc1OCC(=O)Nc1ccc(NC(=O)COc2ccccc2OC)cc1	1	-12	4	-1	-5	i	16	27
CCOC(=O)c1ccccc1NC(=O)CSc1nnc(COc2ccccc2)n1CC	0	-6	-10	2	-4	i	-8	-25
CCN1CCN(S(=O)(=O)c2cc3c(cc2Cl)NC(=O)CO3)CC1	-9	2	3	-17	-3	i	1	-4
O=C(c1[nH]c(C(F)(F)F)nc1-c1ccccc1)N1CCCN(Cc2ccc(F)cc2)CC1	4	-1	.	.	19	.	.	4
O=C1/C(=C/c2ccccn2)COc2ccccc21	1	3	-2	0	.	i	-2	-6
O=C(/C=C/c1ccc(F)cc1)NC(=S)NNC(=O)c1cnccn1	16	-5	25	52	.	i	4	16
CCOC(=O)c1c(S(=O)(=O)NCC(=O)Nc2ccc(F)cc2)c(C)n(C)c1C	-2	2	.	10	-17	i	.	2
COc1ccc(C(=O)c2ccccc2)c2c(O)ccc(C(=O)c3ccccc3)c12	3	-25	0	5	.	i	-4	.
COCCNS(=O)(=O)c1ccc2c(c1)n(C)c(=O)n2C	0	3	-3	-19	-17	i	0	.
Cc1ccc(S(=O)(=O)N2CCOCC2)cc1NC(=O)COC(=O)COc1ccccc1[N+](=O)[O-]	-3	2	.	4	-24	.	.	-5
COc1ccc(C(=O)Nc2ccccc2C(=O)Nc2ccc(C(=O)O)cc2)cc1	-2	1	-5	-10	-9	i	-4	-81
CC(C)(C)C1CCC2(CC1)SCC(=O)N2c1ccccc1 (stereo not given)	-1	-8	1	0	-11	i	-5	.
CSc1ccc(CN2CCC(n3nccc3NC(=O)C3CCOC3)CC2)cc1 (stereo not given)	-1	1	-6	3	-17	i	-3	0
COC(=O)c1ccc(/C=N/Nc2nc3ccccc3[nH]2)cc1	10	4	-7	-8	.	i	6	-23
O=C(CC1SC(=Nc2ccc(OC(F)F)cc2)N(CCN2CCOCC2)C1=O)Nc1ccccc1 (stereo not given)	0	-5	-17	-2	6	i	7	11
CN(/N=C/c1cccnc1)c1cnn(-c2ccc(F)c(Cl)c2)c(=O)c1Cl	7	5	-46	-3	-2	i	-15	-22
O=Nc1c2cc(-c3ccccc3)[nH]nc-2c2ccccc12	-4	-7	15	.	.	i	29	-146
O=C(CCn1c(=O)c2ccccc2n(Cc2cccc([N+](=O)[O-])c2)c1=O)N1CCc2ccccc2C1	1	1	6	-4	-6	i	21	34
CS(=O)(=O)N1N=C(c2ccccc2)CC1c1cccs1 (stereo not given)	5	1	-9	3	4	i	-9	.
CCNC(=O)NS(=O)(=O)c1cnccc1Nc1cccc(Cl)c1	9	9	-3	-5	-4	i	-7	.
O=C(COc1ccccc1)Nc1cc(NC(=O)COc2ccccc2)cc(C(=O)O)c1	0	0	-1	-16	8	i	10	-24
c1nc(NCC2(N3CCOCC3)CCCCC2)c2ccsc2n1	6	0	0	0	-1	i	-5	-13
COc1ccc(OC)c(N=c2ssnc2Cl)c1	-1	5	-17	-14	66	i	23	-3
CC12CCC(C(=O)Nc3nc4ccc(Br)cc4s3)(OC1=O)C2(C)C (stereo not given)	2	-1	-14	6	.	i	-13	11
CC1(C(=O)NS(=O)(=O)c2ccc(C#N)cc2)CCN1C(=O)C1(c2ccc(Cl)cc2)CCC1 (stereo not given)	1	3	.	.	-8	.	.	-11
Cc1nn(-c2ccccc2)nc1CNC(=O)c1ncoc1-c1ccccc1	3	-12	-3	3	.	i	14	-7
O=C(O)CCC(=O)Nc1cccc(-c2nnc(-c3ccccc3)o2)c1	-1	4	1	7	0	i	-3	-4
CCn1c(SCC(=O)Nc2ccc3c(c2)OCCO3)nnc1C1CC1	0	7	-2	-4	-6	.	8	8
Fc1ccc(NCc2n[nH]c(=S)n2Cc2ccccc2)cc1	2	-2	5	8	-3	i	8	0
Cc1onc(-c2c(Cl)cccc2Cl)c1C(=O)O/N=C(\C#N)c1ccccc1	-2	-1	9	.	.	i	-1	-4
Cc1ccccc1C1=N/C(=C/c2cccs2)C(=O)O1	1	1	-3	-11	-24	i	7	30
COc1ccc(NC(=S)NNC(=O)c2ccco2)c(OC)c1	1	2	-1	-3	-21	i	-7	16
Cc1ccc(OCC(=O)N(Cc2ccccc2)c2c(N)n(Cc3ccccc3)c(=O)[nH]c2=O)c(C)c1	-1	-5	.	-9	.	.	.	4
COC(=O)c1c(C)cc(OC(C)=O)c(C)c1OC(C)=O	3	-1	-7	-3	-11	i	6	.
O=C(Nc1n[nH]c(=S)s1)c1ccco1	-1	3	-4	-4	-15	i	0	-22
CCc1nc(N2CCCC(C)C2)c2oc3ccccc3c2n1 (stereo not given)	-4	-9	-1	18	-7	i	5	41
CCN1CCN(S(=O)(=O)c2ccc(Cl)c(C(=O)N(C)Cc3cccs3)c2)CC1	-4	-1	.	.	6	.	.	-3
CC(C)C(=O)NC(=S)Nc1ccc(S(=O)(=O)N(C)Cc2ccccc2)cc1	0	-10	2	42	-14	i	6	.
COc1cccc(Oc2nc3ncn(Cc4ccccc4)c3c(=O)n2C)c1	6	0	1	-2	113*	i	5	.
CCOc1cc(C(=S)N2CCOCC2)ccc1OC	4	6	-6	0	-7	i	-6	-67
Cc1[nH]n(-c2ccc(Cl)cc2)c(=O)c1/C=N/n1c(C)nc2ccccc2c1=O	.	.	2	15	-19	i	-2	-40
Cc1cccc(C)c1NC(=O)c1c(O)c2ccccc2[nH]c1=O	-4	-11	-8	-18	-16	i	-5	8
N#Cc1nnn(-c2cc(Cl)cc(Cl)c2)c1N	2	2	-2	7	.	i	0	-3
O=C(N1CCCC1)n1c(Cc2ccccc2)nc2ccccc21	-1	-2	-9	-10	.	i	-1	-12
CC(=O)NS(=O)(=O)c1ccc(NC(=O)c2ccccc2F)cc1	3	1	-8	-1	-7	i	-6	-15
COc1cccc(CNC(=O)C2CCC(CNc3c(N4CCC(C)CC4)c(=O)c3=O)CC2)c1 (stereo not given)	0	4	-2	-7	13	i	-12	-8
O=C(N/N=C(\Cc1ncc[nH]1)c1ccccc1)c1ccccc1	.	.	0	20	.	i	2	11

Remaining list, next part.
SMILES	MT1-MMP act inh	MT1-MMP act inh RFP	eIF4H inh	CSC inhib	Yeast UUG start	Rce1 inh	PABP polyA inh	Env fusion inh	others
Cc1ccc(Nc2nc(OC(C(F)(F)F)C(F)(F)F)nc(N3CCOCC3)n2)cc1	-32	-24	-3	-7	-21	i	-19	.
N#CCC(=O)Nc1sc2c(c1C(N)=O)CCCC2	-8	5	-3	-2	-27	i	2	-16
Nn1c(SCC(=O)Nc2ccc(F)cc2)nnc1C1CCCCC1	6	2	-10	-18	-11	i	-10	12
O=C(NCc1ccco1)c1ccc(Br)s1	1	3	5	.	-9	i	-12	-38
Cc1ccccc1NS(=O)(=O)c1cc(C(=O)Nc2cccc([N+](=O)[O-])c2)ccc1C	-3	-17	-9	18	.	i	3	16
O=C(COC(=O)c1ccc(O)cc1)Nc1ccc2[nH]c(=O)[nH]c2c1	-1	2	.	-7	.	i	.	-5
COc1ccccc1CNC(=O)c1ccc(OCc2c(C)noc2C)c(OC)c1	-4	-6	3	-5	3	i	4	-9
O=C(NCc1cccc(Cl)c1)c1ccc2c(c1)OCO2	1	5	0	-4	.	i	1	-36
Cc1cccc(NC(=S)NCCN2CCOCC2)c1C	2	5	8	-4	.	i	-2	-24
Cc1cccc(NC(=S)N/N=C/c2ccc([N+](=O)[O-])s2)c1	-31	-7	1	125*	-33	i	22	105*
COc1cccc(-c2ncc3ccccc3c2COC(=O)c2ccc(Br)cc2)c1	0	-4	.	10	-9	.	.	12
Fc1ccccc1CN(CCN1CCOCC1)C(=S)Nc1ccccc1Cl	-1	-7	1	3	.	i	-12	25
COc1ccc(-c2cn(-c3ccc(C)cc3)c(=O)n2CC(=O)Nc2cccc(F)c2)cc1	-6	-1	2	-3	-4	i	-8	-154
CC1(Cc2ccc(Cl)s2)C(=O)Nc2c(Cl)ccc(Cl)c21 (stereo not given)	3	-2	.	.	-11	.	.	2
COc1ccc(S(=O)(=O)N(C)CC(=O)Nc2ccc(C)cc2)cc1OC	-4	1	-13	1	.	i	-1	12
Cc1ccc(C(=O)CSc2cc(C)[nH]c(=O)n2)cc1	-7	7	22	-17	-30	i	12	-29
O=c1c2c(nc3nc(CCc4ccccc4)[nH]n13)CCC2	-3	-1	-7	9	-11	i	-2	.
COc1ccc(-c2cc(C(=O)OC(C)C(=O)Nc3c(C)n(C)n(-c4ccccc4)c3=O)c3ccccc3n2)cc1 (stereo not given)	-2	1	-3	-4	.	i	4	17
